Screening data (PubChem)
VDR inhibitor – inhibitors of human vitamin D receptor; P11473; VDR-SRC2-3 peptide fluorescence polarization, 2 h; Potency, µM, for the others: max response, negative = inhibition, actives largely listed as inhibitors; hit rate 0.93% among 400,000; AID 504847; active = well fitted inhibition curve with a large enough effect; inconclusive = small, poorly fitted or top-dose-only effect, or another doubt; inactive = no such curve, though single readings can be large or run the other way; note: series mostly up to about 120 µM
Target sequence (P11473 whole entry, looked up): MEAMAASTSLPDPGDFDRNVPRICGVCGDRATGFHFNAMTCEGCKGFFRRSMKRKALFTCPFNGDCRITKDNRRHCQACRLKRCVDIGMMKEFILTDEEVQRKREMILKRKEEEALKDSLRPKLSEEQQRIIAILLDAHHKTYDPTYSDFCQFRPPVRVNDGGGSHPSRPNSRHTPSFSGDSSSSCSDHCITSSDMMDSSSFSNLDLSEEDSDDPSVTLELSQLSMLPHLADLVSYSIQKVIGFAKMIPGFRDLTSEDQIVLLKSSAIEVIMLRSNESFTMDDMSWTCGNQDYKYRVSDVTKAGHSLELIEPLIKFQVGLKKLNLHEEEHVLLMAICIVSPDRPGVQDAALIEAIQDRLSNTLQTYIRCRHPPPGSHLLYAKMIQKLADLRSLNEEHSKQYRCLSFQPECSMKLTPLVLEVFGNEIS
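FP read-out; VDR + SRC2-3 coactivator peptide; 23 nl compound by pintool; 2 h RT incubation; reagents held at 4 deg C, protected from light.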
The depositor's hits bear a star; ? = inconclusive; & = joins results of further samples. % is set by controls: 0 for no effect and ±100 for the full control effect; potency is the fitted concentration of half-maximal effect. These rows are one share of the data; count on the stated rates, not on these rows.

N#CC1(NC(=O)COC(=O)CSc2ccc(F)cc2)CCCCC1
  VDR inhibitor: -4%

Cc1nc(NNC(=O)c2ccccc2)cc(-c2ccccc2)n1
  VDR inhibitor: 1%

Cc1c(NC(=O)CSc2nnc(C(C)N(C)C)n2-c2ccccc2)c(=O)n(-c2ccccc2)n1C (configuration not stated)
  VDR inhibitor: 2%

O=C(CSc1cccs1)Nc1ccc2ccccc2c1
  VDR inhibitor: 10%

CCN(CC(=O)NCc1ccc(F)cc1)c1ccc(S(C)(=O)=O)cc1[N+](=O)[O-]
  VDR inhibitor: -11%

Cc1cc2oc(C(=O)Nc3cccc(-c4nc5ccccc5o4)c3)c(C)c2cc1C
  VDR inhibitor: 3%

O=C(CCCOc1ccccc1)N1CCN(c2ccccc2)CC1
  VDR inhibitor: 2%

CC(=O)NCC(=O)OCC(=O)c1ccccc1
  VDR inhibitor: -2%

CCOc1ccc(NC(=S)Nc2cccnc2)cc1
  VDR inhibitor: -19%

O=C(CNC(=S)N(Cc1ccccc1)Cc1cccnc1)NCCN1CCOCC1
  VDR inhibitor: 5%

CC1=CC(C)C(/C=N/n2cnnc2)C(C)C1 (configuration not stated)
  VDR inhibitor: -2%

COc1ccc(S(=O)(=O)NNC(=O)c2csc(-n3nc(C)cc3C(F)(F)F)n2)cc1OC
  VDR inhibitor: -5%

COC(=O)c1ccc(C)c(N(CCO)CCO)c1
  VDR inhibitor: 6%

COC(=O)c1sccc1NC(=S)N1CCN(C)CC1
  VDR inhibitor: -18%

O=C(O)c1cccc(S(=O)(=O)Nc2cccc(S(=O)(=O)N3CCCC3)c2)c1
  VDR inhibitor: -3%

Clc1ccc(OCc2nnc3n2CCCCC3)c(Cl)c1
  VDR inhibitor: -11%

COc1ccc2[nH]cc(C(=O)CN3CCN(C4CCCCC4)CC3)c2c1
  VDR inhibitor: 15%

CCn1c(SCC(=O)NCc2ccccc2)nnc1C(CO)NC(=O)c1ccccc1 (configuration not stated)
  VDR inhibitor: 7%

CCn1c(SCC(=O)Nc2sc3c(c2C#N)CCCC3)nnc1-c1ccncc1
  VDR inhibitor: 6%

CN1C(=O)/C(=N/OC(=O)c2ccccc2)c2ccccc21
  VDR inhibitor: -18%

CCCCCCNC(=O)C(=O)NCCc1ccc(Cl)cc1
  VDR inhibitor: -4%

Cc1cccc(C)c1-n1nnnc1SCC(=O)N1CCNC1=O
  VDR inhibitor: -1%

Cc1ccc(C)c(OCCC(=O)OCC(=O)NCc2ccccc2)c1
  VDR inhibitor: -13%

CCCCNC(=O)c1ccc2c(c1)N(C)C(=O)c1ccccc1S2
  VDR inhibitor: -20%

CC(=O)Nc1ccc(S(=O)(=O)n2cnc3ccccc32)cc1
  VDR inhibitor: 3%

CCc1ccc(S(=O)(=O)Nc2cc3c(C(=O)OCc4ccccc4)c(C)oc3c3ccccc23)cc1
  VDR inhibitor: -3%

CCc1ccc(CNC(=O)Cn2c(-c3cccs3)cc3cc(F)ccc32)cc1
  VDR inhibitor: -3%

O=c1[nH]sc2ccccc12
  VDR inhibitor: ?

CCOc1ccccc1N1CC(O)=C(c2nc3ccccc3s2)C1=N
  VDR inhibitor: 2%

O=C(NCCCc1ccc(F)cc1)C1CCC(=O)N(CCCN2CCCC2=O)C1 (configuration not stated)
  VDR inhibitor: -5%

A second format for part of the listing above.
VDR inhibitor,molecule
2%,CCOc1ccccc1N1CC(O)=C(c2nc3ccccc3s2)C1=N
-5%,O=C(NCCCc1ccc(F)cc1)C1CCC(=O)N(CCCN2CCCC2=O)C1 (configuration not stated)

Additional entries follow:
CCOC(=O)c1ccc(S(=O)(=O)NCC(c2ccc(N(C)C)cc2)c2c[nH]c3ccccc23)cc1 (configuration not stated)
  VDR inhibitor: -4%

CCCOc1ccccc1/C=C(\C#N)C(=O)Nc1cccc(C)n1
  VDR inhibitor: ?

COc1ccc(O)c(CN2CCN(CCc3ccccc3)C(CCO)C2)c1 (configuration not stated)
  VDR inhibitor: -2%

COc1ccc(-c2nc(CS(=O)(=O)CC(=O)NCc3ccc4c(c3)OCO4)c(C)o2)cc1
  VDR inhibitor: 25%

CC(=O)Nc1ccc(N/C=C/C(=O)c2ccc(Cl)cc2)cc1
  VDR inhibitor: -6%

Cc1nn(CCC(=O)O)c2nc(-c3cccnc3)cc(C(F)(F)F)c12
  VDR inhibitor: 7%

COc1cc(/C=C/C(=O)OCC(=O)NCCc2ccccc2)cc(OC)c1OC
  VDR inhibitor: -11%

COc1ccccc1NC(=O)c1cccc(N2C(=O)C3C4C=CC(C4)C3C2=O)c1 (configuration not stated)
  VDR inhibitor: -21%

O=C(c1ccc(Cl)c([N+](=O)[O-])c1)N1CCN(S(=O)(=O)c2ccc(Cl)cc2)CC1
  VDR inhibitor: 11%

CC12CC(NC(=O)N1c1cccc(C(=O)N3CCN(c4ccccc4)CC3)c1)c1ccccc1O2 (configuration not stated)
  VDR inhibitor: 8%

CCCCOc1ccc(-c2cnc3ccccc3n2)cc1
  VDR inhibitor: 0%

CCCCn1c(N)c(N(CC(C)C)C(=O)c2ccc(S(=O)(=O)N3CCC(C)CC3)cc2)c(=O)[nH]c1=O
  VDR inhibitor: -5%

O=C(CSc1nnc2ccccn12)NNC(=O)c1ccccc1F
  VDR inhibitor: 11%

COC(=O)c1ccc(NC(=O)CSc2nc3ccc(OC)cc3[nH]2)cc1
  VDR inhibitor: -11%

COc1ccccc1CNc1ccc(-c2nc(-c3ccccn3)no2)cc1[N+](=O)[O-]
  VDR inhibitor: 4%

O=C(COC(=O)CNC(=O)c1ccc(Cl)cc1Cl)NC1CCCCC1
  VDR inhibitor: 24%

NC(=O)CCN(C1CCCCC1)S(=O)(=O)c1cccc2nsnc12
  VDR inhibitor: 12%

COc1cccc2c1cc1c(=O)n(CC(=O)N3CCN(c4ccc(F)cc4)CC3)nc(C)n12
  VDR inhibitor: 1%

O=C(NCc1cccs1)c1nn(-c2ccccc2F)nc1CO
  VDR inhibitor: 13%

C[C@H](CO)N1C[C@H](C)[C@H](CN(C)CC2CCCCC2)Oc2ccc(NS(=O)(=O)c3ccc(F)cc3)cc2CC1=O
  VDR inhibitor: 6%

CN(CC(=O)NCCc1ccc(S(N)(=O)=O)cc1)Cc1ccc(Cl)cc1Cl
  VDR inhibitor: -24%

CCOC(=O)/C=C1\NC(C)(C)Cc2cc(OC)c(OC)cc21
  VDR inhibitor: 15%

CCN1CCN(C(=O)CCN2C(=O)COc3ccc(C)cc32)CC1
  VDR inhibitor: -3%

COc1ccc(Cl)cc1NC(=O)CN1C(=O)NC(C)(Cc2ccc(OC)c(OC)c2)C1=O (configuration not stated)
  VDR inhibitor: -26%

CCn1c(CCNC(=O)c2cccs2)nnc1SCC(=O)c1ccc(OC)cc1
  VDR inhibitor: -13%

COc1nc(N2CCOCC2)nc(-n2cccc2)n1
  VDR inhibitor: -4%

NC(=O)CC(NC(=O)c1ccccc1)c1ccc(NCCN2CCOCC2)c([N+](=O)[O-])c1 (configuration not stated)
  VDR inhibitor: -7%

Nc1ncnc2c1ncn2[C@@H]1O[C@H](CNCC#Cc2ccccc2)[C@@H](O)[C@H]1O
  VDR inhibitor: 8%

CC(C)C[C@@H](CSc1ccc(Br)cc1)N1CCN(CC(C)C)CCC1=O
  VDR inhibitor: -4%

O=C(c1cc(=O)[nH]c2ccccc12)N1CCc2ccccc2C1
  VDR inhibitor: -5%

CN1CCN(C(CNC(=O)C(=O)NC2CCCC2)c2ccc(F)cc2)CC1 (configuration not stated)
  VDR inhibitor: -9%

Cc1ccc([N+](=O)[O-])cc1-c1ccc(/C=N/NC(=O)CN2CCOCC2)o1
  VDR inhibitor: -7%

COc1cc(OC)cc(C(=O)N2CCN(C3CCC(C)CC3)CC2)c1 (configuration not stated)
  VDR inhibitor: 25%

O=C(c1csnn1)N1CCC2(CCCN(c3ccccc3)C2)CC1
  VDR inhibitor: -27%

O=C(COC(=O)c1cc(S(=O)(=O)N2CCOCC2)ccc1F)NC1CC1
  VDR inhibitor: -3%

CC(C)CNC(=S)NNC(=O)CC(C)O (configuration not stated)
  VDR inhibitor: -7%

Cc1ccc(-c2nc3cc(NC(=O)Cc4ccc(Cl)cc4)ccc3o2)cc1
  VDR inhibitor: -13%

COc1cc(C(=O)N2CCN(C(=O)C(Cc3cc(C)ccc3C)NC(C)=O)CC2)cc(OC)c1OC (configuration not stated)
  VDR inhibitor: 5%

CN1CCN(C(=O)CCC(=O)c2ccc(F)cc2)CC1
  VDR inhibitor: 8%

CC(C)=C1C2CCC1C1C(=O)N(c3ccc4c(c3)OCO4)C(=O)C21 (configuration not stated)
  VDR inhibitor: -13%

Cc1ccc(CNC(=O)CCC2CCCN(Cc3ccc4cccc(F)c4n3)C2)o1 (configuration not stated)
  VDR inhibitor: 2%

CC(C)c1ccc(NC(=O)CN2C(=O)COc3ccc(S(=O)(=O)N4CCOCC4)cc32)cc1
  VDR inhibitor: -21%&10%

COC(=O)CNC(=O)c1ccc(C)s1
  VDR inhibitor: 1%

CCOc1ccc(CCNC(=O)c2c(C)oc3ncn(CC(C)C)c(=O)c23)cc1OCC
  VDR inhibitor: 13%

COc1cccc(CNC(=O)c2ccc3c(c2)c(C)c(C)n3Cc2ccccc2)c1
  VDR inhibitor: 11%

CCN(CC)CCNC(=O)C1CCN(c2cc(C)nc3c(-c4ccc(Cl)cc4)c(C)nn23)CC1
  VDR inhibitor: -18%

Cn1nc([N+](=O)[O-])c2c(-c3nc4ccccc4s3)c(N)n(C3CCCCC3)c2c1=O
  VDR inhibitor: 20%

c1ccc2nc(-c3ccc(N4CCOCC4)cc3)ccc2c1
  VDR inhibitor: 21%

Cc1nnc(NC(=O)c2ccc(F)c(S(=O)(=O)N3CCOCC3)c2)s1
  VDR inhibitor: 12%

CCSC1=C(C#N)C2(CCCCC2)C(C#N)=C(N)N1
  VDR inhibitor: -2%

Cc1ccc(-c2nc3cccnc3s2)cc1NC(=O)C(C)C
  VDR inhibitor: 2%

CN(C)c1ccnc2sc(C(=O)c3ccccc3)c(N)c12
  VDR inhibitor: -28%

CCOCCCNC(=O)NC12CC3CC(CC(C3)C1)C2
  VDR inhibitor: 4%

CC(C)c1cc(NCc2ccccn2)n2c(nc3ccccc32)c1C#N
  VDR inhibitor: -6%

CC(C)n1c(O)c(N=NC(=O)CNC(=O)Cc2ccc(Cl)cc2)c2ccccc21
  VDR inhibitor: -1%

Cc1ccc(NC(=O)NCc2c(-n3cccc3)sc3c2CCCC3)c(Cl)c1
  VDR inhibitor: -6%

COc1ccc(C2C(C(=O)Nc3ccccc3)=C(C)Nc3nc(-c4ccccc4)nn32)c(OC)c1 (configuration not stated)
  VDR inhibitor: 1%

CC(OC(=O)c1cnccn1)C(=O)c1ccccc1 (configuration not stated)
  VDR inhibitor: 3%

Cc1ccc(N2CCN(c3cc(C)nc4nc(C)nn34)CC2)c(C)c1
  VDR inhibitor: -4%

Cc1ccc(-c2cc(C(=O)Nc3c(C)n(C)n(-c4ccccc4)c3=O)[nH]n2)c(O)c1C
  VDR inhibitor: 4%

COc1ccccc1C(=O)C1CCCN(C(=O)c2ccc3c(c2)OCCO3)C1 (configuration not stated)
  VDR inhibitor: -11%

Cc1ccccc1C(=O)NCCCNC(=O)c1ccccc1C
  VDR inhibitor: 1%

Cc1ccc(C(C)C)c(OCCOCCN2CCNCC2)c1
  VDR inhibitor: -1%

CSc1ncc(C(C)=O)c(C)n1
  VDR inhibitor: 10%

COC(=O)c1ccccc1NS(=O)(=O)c1ccc2c(c1)CCCN2C(C)=O
  VDR inhibitor: -13%

Cc1cc(C)c2nc(SC3CCOC3=O)cc(C)c2c1 (configuration not stated)
  VDR inhibitor: -20%

CC(C)CC1NC(=O)N(CC(=O)NC2CCCCC2)C1=O (configuration not stated)
  VDR inhibitor: 4%

COc1ccc(/C=C/C(=O)Nc2nc(C)cc(C)n2)cc1OC
  VDR inhibitor: -19%

CCCCC(=O)Nc1ccc(N2CCN(C(=O)CC)CC2)cc1
  VDR inhibitor: -1%

O=C(NCc1ccco1)/C(=C\c1ccco1)NC(=O)c1ccco1
  VDR inhibitor: -9%

O=C(Nc1ccccc1N1CCN(C(=O)c2ccc(Cl)cc2)CC1)c1ccc([N+](=O)[O-])o1
  VDR inhibitor: 2%

CC(=O)c1sc(NC(=O)c2ccc(F)cc2)nc1-c1ccccc1
  VDR inhibitor: -25%

Gathered by group, the compounds so far with a Cl atom
Clc1ccc(OCc2nnc3n2CCCCC3)c(Cl)c1
  VDR inhibitor: -11%

CCCCCCNC(=O)C(=O)NCCc1ccc(Cl)cc1
  VDR inhibitor: -4%

CC(=O)Nc1ccc(N/C=C/C(=O)c2ccc(Cl)cc2)cc1
  VDR inhibitor: -6%

O=C(c1ccc(Cl)c([N+](=O)[O-])c1)N1CCN(S(=O)(=O)c2ccc(Cl)cc2)CC1
  VDR inhibitor: 11%

O=C(COC(=O)CNC(=O)c1ccc(Cl)cc1Cl)NC1CCCCC1
  VDR inhibitor: 24%

CN(CC(=O)NCCc1ccc(S(N)(=O)=O)cc1)Cc1ccc(Cl)cc1Cl
  VDR inhibitor: -24%

COc1ccc(Cl)cc1NC(=O)CN1C(=O)NC(C)(Cc2ccc(OC)c(OC)c2)C1=O (configuration not stated)
  VDR inhibitor: -26%

Cc1ccc(-c2nc3cc(NC(=O)Cc4ccc(Cl)cc4)ccc3o2)cc1
  VDR inhibitor: -13%

CCN(CC)CCNC(=O)C1CCN(c2cc(C)nc3c(-c4ccc(Cl)cc4)c(C)nn23)CC1
  VDR inhibitor: -18%

CC(C)n1c(O)c(N=NC(=O)CNC(=O)Cc2ccc(Cl)cc2)c2ccccc21
  VDR inhibitor: -1%

Cc1ccc(NC(=O)NCc2c(-n3cccc3)sc3c2CCCC3)c(Cl)c1
  VDR inhibitor: -6%

O=C(Nc1ccccc1N1CCN(C(=O)c2ccc(Cl)cc2)CC1)c1ccc([N+](=O)[O-])o1
  VDR inhibitor: 2%
